PINK1 modulator: modulators of PINK1 expression. Potency, µM (top dose mostly 76.6 µM), without a hit: at the top dose activation (PINK1 increase), most hits filed as activators. 410,000 compounds, 0.2% hits. PINK1 immunofluorescence, high-content cytometry, 24 h; active = well fitted activation curve with a large enough effect; inconclusive = small, poorly fitted or top-dose-only effect; inactive = flat fitted curve, though single readings scatter; cell line not stated here;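 further: potency means the concentration at half of the fitted maximal effect; % of control where 0% means no effect; nearly all actives have a fitted effect of over 65% in size; a mitochondrial uncoupler was the plate control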
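Stable cell line, 250 cells/well, 12 h attachment; compounds pinned at 5 concentrations, 24 h; CCCP control. Fixed with nuclear dye, primary antibodies 12 h at 10 degrees C, secondary plus cell stain; laser-scanning cytometer read.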
Six1-Eya2 inh: blocks human Six1 binding to Eya2 | 360,000 compounds, 0.56% hits | Q15475+O00167 | AlphaScreen GST-Six1/His-Eya2 binding, biochemical; active compounds read low; control for the full effect not named in the record | activity change, % (concentration not given with the values); in the data active = activity change below about -65%; inconclusive = about -30% to -65%; inactive = above about -30%; further: on the % scale 0 is the no-effect control and ±100 the full control effect
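Homogeneous AlphaScreen proximity assay pairing GST-Six1 with His-tagged Eya2 (added as 5X mix: 250 nM and 500 nM) in 50 mM Tris pH 8.0, 300 mM NaCl, 1 mM TCEP. Glutathione donor and nickel acceptor beads; 1 h, 37 °C, dark.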
TRPV1 PAM: human TRPV1 potentiation; Q8NER1; TRPV1-expressing cells, Fluo-8 calcium influx, capsaicin EC20 potentiation; host cell line not named in the record; control for the full effect not named in the record; potentiation, % at 8.33 µM; 320,000 compounds, 0.02% hits; AID 540277; active means potentiation above 80%; inconclusive means 30% to 80%; inactive means below 30%; further: 0% is about no effect
Target sequence (Q8NER1 whole entry, looked up): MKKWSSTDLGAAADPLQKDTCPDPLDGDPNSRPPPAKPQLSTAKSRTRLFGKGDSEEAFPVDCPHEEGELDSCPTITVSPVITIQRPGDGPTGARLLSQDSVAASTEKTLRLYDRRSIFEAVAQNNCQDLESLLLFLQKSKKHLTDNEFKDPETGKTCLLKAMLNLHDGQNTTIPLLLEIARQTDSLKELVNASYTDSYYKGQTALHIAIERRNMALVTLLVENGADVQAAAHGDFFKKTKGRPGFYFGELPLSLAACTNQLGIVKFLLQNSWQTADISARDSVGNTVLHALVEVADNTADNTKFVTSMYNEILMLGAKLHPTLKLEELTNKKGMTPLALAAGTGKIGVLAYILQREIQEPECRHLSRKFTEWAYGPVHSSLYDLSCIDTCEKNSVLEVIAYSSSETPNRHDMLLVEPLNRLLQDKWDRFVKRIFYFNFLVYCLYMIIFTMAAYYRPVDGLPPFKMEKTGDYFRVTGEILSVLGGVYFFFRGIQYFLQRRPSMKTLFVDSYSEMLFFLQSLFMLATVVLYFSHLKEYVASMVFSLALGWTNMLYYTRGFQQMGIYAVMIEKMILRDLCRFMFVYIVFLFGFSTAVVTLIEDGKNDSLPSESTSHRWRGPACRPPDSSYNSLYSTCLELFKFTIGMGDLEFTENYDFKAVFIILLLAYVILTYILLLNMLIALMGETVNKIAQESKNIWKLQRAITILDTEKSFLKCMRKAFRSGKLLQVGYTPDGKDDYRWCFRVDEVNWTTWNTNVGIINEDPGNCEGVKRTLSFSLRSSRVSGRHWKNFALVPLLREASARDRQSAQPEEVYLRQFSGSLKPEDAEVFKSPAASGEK
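TRPV1-expressing cells were cultured overnight at 35.5C and loaded with Fluo-8 calcium dye for 40 to 90 min at room temperature. After a 10 s baseline, compound was added and calcium influx was read kinetically for 3 min (ex 480/em 520 nm).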
Sfp inh: blocks B. subtilis Sfp PPTase activity; Q9F4F7; Biochemical Sfp PPTase activity, qHTS; Potency, µM, inactives show max response, negative = inhibition, usual class: inhibitors; 310,000 compounds, 3.5% hits; AID 1490; active means well fitted inhibition curve with a large enough effect; inconclusive means small, poorly fitted or top-dose-only effect, or another doubt; inactive means no such curve, though single readings can be large or run the other way;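 further: the enzyme is Sfp with the accession as filed and its product quenches rhodamine fluorescence; potency means the concentration at half of the fitted maximal effect; 0% = enzyme reaction without inhibitor and -100% = no enzyme wells; top concentration of the series not given in the record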
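With Hepes-Na pH 7.6 buffer containing 10 mM MgCl2, Sfp (15 nM) modified BHQ-2-YbbR (12.5 uM) using rhodamine-CoA (5 uM). Two reads 30 minutes apart at 525/598 nm yielded each well's rate.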
D2 ag: activates the human D2 dopamine receptor; DiscoveRx PathHunter D2 beta-arrestin, luminescence, 90 min; 100% = 57 uM dopamine signal; activation, % (no concentration beside the values); AID 624465; 360,000 compounds, 0.084% hits; in the data active = activation above about 40%; inconclusive = about 15% to 40%; inactive = below about 15%; further: compound concentration not given in the record; the text of the record calls up to 30% inactive
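DiscoveRx PathHunter D2 beta-arrestin cells (2,100/well) attached overnight, then compound-stimulated 90 min at 37 C in HBSS/10 mM HEPES/0.1% Tween-20 buffer; beta-galactosidase complementation read by luminescence after 1 h at ambient temperature. Dopamine 57 uM final (EC100) as control.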
D2 potentiator: potentiates the human D2 dopamine receptor allosterically | P14416 | potentiation, % (no concentration beside the values) | DiscoveRx D2 beta-arrestin cells, luminescence, 90 min; 100% = 57 uM dopamine signal | 360,000 compounds, 0.23% hits; active = potentiation of 50% or more; inconclusive = 30% to 50%; inactive = 30% or less;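 further: compound concentration not given in the record; tested on top of an EC20 dose of dopamine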
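PathHunter beta-arrestin assay in DiscoveRx D2 cells. Compounds were added with an EC20 of dopamine (50 nM final) for 90 min at 37 deg C. Luminescence was read 1 h after detection reagent, with 57 uM dopamine as the EC100 control.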
CtBP-E1A blk: CtBP/E1A binding inhibition; AlphaScreen GST-E1A/His-CtBP binding, 1536-well; active compounds read low; control for the full effect not named in the record; activity change, % (concentration not given with the values); 340,000 compounds, 0.49% hits; AID 651724; in the data active means activity change below about -65%; inconclusive means about -30% to -65%; inactive means above about -30%; further: on the % scale 0 is the no-effect control and ±100 the full control effect
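In 5 uL wells, 23 nL compound meets equimolar GST-E1A and His-CtBP (5X stock 125 nM each) for 2 h, 37 °C. Beads (5X, 50 ug/mL) then 1 h, 37 °C, dark.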
Starred values were filed as active, the others as inactive; ? = inconclusive; . = no result given; & = joins results of further samples; [ ] = dose if it differs, or a comment.

SMILES	PINK1 modulator	Six1-Eya2 inh	TRPV1 PAM	Sfp inh	D2 ag	D2 potentiator	CtBP-E1A blk
CN1/C(=C/C(=O)C2CCC2)Sc2ccccc21	.	-1	-3	?	0.1	-26	10
CC(=O)Cn1c(C(F)(F)F)nc2ccccc21	-0.2%	14	16	-7%	-0.8	12	-1
N#CC1=C(N)C2=C(N3CCCCC3)CCCC2C1(C#N)C#N (stereo not given)	0.1%	-16	-5	?	3.0	4	-26
CC12CCC(=O)C=C1CCC1C2CCC2(C)C(C(=O)CO)CC(O)C12 (stereo not given)	3.2%	-8	.	.	-1.6	-1	2
COC(=O)c1sccc1NC(=O)c1cc(OC)cc(OC)c1	2.9%	-3	?	-23%	-4.8	-5	14
COc1cccc(C(=O)OCC(=O)NC(=O)NC2CCCC2)c1O	0.3%	-2	-2	8%	?	-29	1
Cc1ccc(NC(=O)CN2C(=O)CN(C)C2=O)cc1S(=O)(=O)N1CCCCC1	0.2%	4	23	21%	0.5	-1	-1
CCN(CC)CC(=O)Nc1c2c(nc3ccccc13)N(C)CC2	-1.2%	0	1	?	-2.2	2	-8
COc1ccc(-c2ccc([C@H]3[C@@H]4C=CCC[C@@]4(C)C(=O)N3Cc3ccccc3)c(F)c2)cc1	14%	-8	-8	32µM*	-4.1	-10	?
COc1cccc(C=NNC(=O)C2CC2)c1	1.2%	3	.	.	2.6	-3	2
CCC(NC(=S)NCc1ccc(F)cc1)c1ccc(C(C)C)cc1 (stereo not given)	16µM*	0	-11	27%	-0.7	-32	3
NC(=O)C1CCN(CCCNC2CC(=O)N(Cc3ccc(N4CCCC4=O)cc3)C2=O)CC1 (stereo not given)	1.3%	3	.	.	-5.7	-4	-4
COC(=O)C1=C(C)NC(C)=C(C(=O)OC)C1C1CC=CCC1 (stereo not given)	9.9%	-1	-17	-2%	-3.3	-6	1
O=C(O)CCCC(=O)Nc1ccccc1C(=O)N1CCOCC1	-3.7%	5	2	12%	-4.3	-1	-6
CC1CCCCC1NC(=O)CO/N=C/c1ccccc1OC(F)F (stereo not given)	0.2%	2	15	1%	1.0	-2	4
O=C(CO/N=C/c1cccc([N+](=O)[O-])c1)NC1CCCCC1	4.2%	2	5	-20%	-1.8	-8	0
COc1ccc(SCCc2nnc(-c3ccccc3)o2)cc1	0.7%	0	-17	5%	-1.1	-9	.
Cc1ccc(C(=O)N2Cc3ccccc3CC2C(=O)O)cc1 (stereo not given)	.	4	2	20%	-1.2	-11	12
CC(C)(C)OC(=O)[C@H](Cc1ccccc1)NC(=O)c1nc[nH]c1C(=O)N1CCc2ccccc2C1	3.3%	-3	-7	15%	-1.3	-9	-7
CCCCn1c(N)c(N(CC)C(=O)CSCc2c(C)noc2C)c(=O)[nH]c1=O	1.4%	3	-2	13%	-1.4	2	4
COc1ccccc1NC(=O)COC(=O)CC(C)(C)CC1=NS(=O)(=O)c2ccccc2N1	1.9%&0.7%	1	1	8%	-5.6	-24	-12
O=C1NC(Cc2ccc(O)cc2)c2nc3cc(F)ccc3c(=O)n2-c2cc3ccccc3cc21 (stereo not given)	1.0%	-10	.	.	2.2	.	-3
O=C(Nc1c(F)cc(F)cc1Br)c1cc(-c2ccccc2)on1	-0.7%	4	-1	-2%	-4.4	-8	.
Cc1nc(C)n(C(Oc2ccc(Cl)cc2Cl)C(=O)C(C)(C)C)n1 (stereo not given)	2.4%	6	.	.	-0.2	-9	-2

An excerpt from above in order of formula weight, falling.
SMILES	PINK1 modulator	Six1-Eya2 inh	TRPV1 PAM	Sfp inh	D2 ag	D2 potentiator	CtBP-E1A blk
CC(C)(C)OC(=O)[C@H](Cc1ccccc1)NC(=O)c1nc[nH]c1C(=O)N1CCc2ccccc2C1	3.3%	-3	-7	15%	-1.3	-9	-7
COc1ccccc1NC(=O)COC(=O)CC(C)(C)CC1=NS(=O)(=O)c2ccccc2N1	1.9%&0.7%	1	1	8%	-5.6	-24	-12
O=C1NC(Cc2ccc(O)cc2)c2nc3cc(F)ccc3c(=O)n2-c2cc3ccccc3cc21 (stereo not given)	1.0%	-10	.	.	2.2	.	-3
O=C(CO/N=C/c1cccc([N+](=O)[O-])c1)NC1CCCCC1	4.2%	2	5	-20%	-1.8	-8	0
Cc1ccc(C(=O)N2Cc3ccccc3CC2C(=O)O)cc1 (stereo not given)	.	4	2	20%	-1.2	-11	12

Other compounds:
SMILES	PINK1 modulator	Six1-Eya2 inh	TRPV1 PAM	Sfp inh	D2 ag	D2 potentiator	CtBP-E1A blk
CCCCC(=O)Nc1cc(Cl)ccc1C(=O)O	1.1%	5	3	10%	-2.3	-8	4
CCn1c(COc2ccccc2)nnc1SCC(=O)NCc1ccco1	-1.8%	-11	4	21%	-2.0	-2	-11
COc1ccc(N2CCN(C(=O)C3CCN(S(=O)(=O)c4ccc5c(c4)oc(=O)n5C)CC3)CC2)cc1	1.3%	7	6	13%	0.2	-4	.
CNC(=S)Nc1cccc(C(=O)O)c1	3.1%	4	28	56µM*	0.5	-10	.
Cc1[nH]c2ccc(F)cc2c1CCN(Cc1cccnc1)C(=S)NC(C)(C)C	-1.2%	-11	7	10%	-2.4	-16	-6
NC(=O)c1c(NC(=O)c2ccc(F)cc2)sc2c1CCC2	11%	-12	1	2%	10	8	-9
CCCCNC(=O)[C@@](CC)(ONc1ccccc1C(F)(F)F)c1cccc2ccccc12	1.5%	-28	-14	.	-4.9	-14	?
C/C(=N\NC(=O)COc1ccccc1-c1ccccc1)c1ccccn1	1.0%	-65*	-8	10%	-3.0	-16	-25
O=C(CNC(=O)c1ccc(Br)cc1)NCC(=O)OCC(=O)c1ccc(F)cc1	1.1%	1	15	9%	-1.8	-3	2
CCCn1nc(NC(=O)c2ccco2)c2cc3ccc(C)cc3nc21	-1.5%	32	-2	-10%	-4.0	2	22
Cc1nn(C(C)C(=O)NC2C(=O)N3C(C(=O)O)=C(CSc4nnnn4C)CSC23)cc1Cl (stereo not given)	-2.2%	-5	9	79µM*	0.6	-6	.
COc1ccccc1NC(=O)CSc1nnc(Cc2cccn2C)n1CCc1ccccc1	-2.3%[38.3 µM]	-20	-4	7%	2.0	-2	-14
Cc1cccn2c(=O)c(C(=O)NCCCN3CCCCC3C)c(O)nc12 (stereo not given)	0.7%&0.9%	-1	-4	2%	-1.3	1	-1
COc1cccc(NC(=O)CSCC(=O)Nc2ccccc2)c1	0.1%	14	12	4%	-1.7	-11	13
C[C@H]1C=CC(=O)O[C@H]1c1ccccc1	4.3%	4	.	10%	0.2	-2	3
Cc1ccc(NC(=O)/C(=C/c2cccc([N+](=O)[O-])c2)NC(=O)C2CCCCC2)c(C)c1	9.3%[38.3 µM]	7	3	6%	-1.7	3	6
COc1ccc(NC(=O)c2cccc(-c3ccc(O)cc3)c2)cn1	4.8%	-2	14	2%	2.7	-26	-4
CC1CC(=O)NC(=O)N1Cc1ccccc1 (stereo not given)	-1.0%	-5	.	.	5.3	-3	1
O=C(Nc1cccc(NC(=O)C2CCCO2)c1)C1CCCO1 (stereo not given)	0.0%	1	15	15%	-0.6	-8	2
O=C(O)CCCC(=O)OCCc1cc2ccccc2c(=O)o1	0.3%	1	.	.	0.3	-4	4
CCOc1ccc(NC(=O)CN(C)c2ccc(S(=O)(=O)N(C(C)C)C(C)C)cn2)cc1OCC	5.4%	-5	-15	13%	-2.4	-18	4
NC(=O)SC/C(=N\S(=O)(=O)c1ccccc1)Nc1ccccc1	-0.5%[38.3 µM]	-1	-1	5%	-2.2	-16	7
CCc1ccc(NC(=O)CCc2ccc(CC)o2)cc1	0.9%	1	6	2%	-2.8	-9	22
Cc1ccc(OCCOCCN2CCCCC2)c([N+](=O)[O-])c1	-0.3%	2	4	56µM*	-0.8	-6	8
O=C(CN1C(=O)C2C3C=CC(C3)C2C1=O)Nc1cccc2c1CCCC2 (stereo not given)	1.7%	10	-8	2%	-3.3	10	20
CCOC(=O)c1cccc(S(=O)(=O)N2CCOCC2)c1	0.5%	-5	-7	8%	-1.3	-3	0
CCCCn1c(N)c(N(CC(C)C)C(=O)CC2CCCC2)c(=O)[nH]c1=O	0.5%	6	6	.	-5.4	-19	8
Cc1ccccc1CNS(=O)(=O)c1ccc2c(c1)C(C)(C)C(=O)N2C	1.1%	-2	0	9%	-3.1	-6	5
CCOC(=O)C1C(c2cccs2)NC(=O)NC1(O)C(F)(F)F (stereo not given)	.	-3	3	19%	-4.9	10	-8
COc1ccc(-c2cnc3c(NC(C)=O)cc(-c4ccsc4)cn23)cc1OC	5.3%	-24	.	.	4.0	-10	-14
CC(C)C(=O)Nc1nnc(Sc2ccc(N(C)C)cc2)s1	1.3%	0	6	-9%	4.1	-4	8
O=C(O)CCN1C(=O)/C(=C\c2cccc(OCC(=O)Nc3ccc(Cl)cc3)c2)SC1=S	4.8%	-22	-16	-4%	-2.4	-10	?
CCOc1ccc(NC(=S)NCCCn2ccnc2)cc1	4.9%	-2	-2	18%	-3.8	-14	-1
Nc1ncc(-n2cncn2)c(-c2ccccc2)n1	1.6%	5	10	7%	-3.7	-10	6
O=C(NCc1ccccc1Cl)c1cnc2ccccc2n1	-0.2%	5	-7	-2%	-5.7	2	3
CC(O)CN(CC(C)O)c1ccc2c(c1)Cc1cc([N+](=O)[O-])ccc1-2 (stereo not given)	9.4%	0	.	.	-7.6	-31	1
NS(=O)(=O)c1ccc(-n2cccc2C=O)cc1	1.5%	2	1	8%	-1.3	-8	1
CC(C)OC(=O)c1nnn(-c2nonc2N)c1CN1CCc2ccccc2C1	4.9%	-2	.	22%	0.9	9	-9
COc1cc2cnc(-c3ccccc3)c(C(=O)c3ccc(F)cc3)c2cc1OC	0.3%	-4	-8	.	-1.4	2	-11
CCOC(=O)C1=CCN(S(=O)(=O)c2ccc(C)cc2)C1c1ccc(C)cc1 (stereo not given)	-0.9%	3	.	.	-5.7	-1	2
Cc1cc2c(cc1S(=O)(=O)NCc1ccc(Cl)cc1)OCC(=O)N2	2.5%	2	5	10%	0.1	-2	6
COC(=O)C1CCN(S(=O)(=O)CCNC(=O)c2cccc(OC)c2)CC1	-0.9%	1	10	.	0.6	-2	10
CCOc1ccc(NC(=O)CSc2nnc(Cn3cnc([N+](=O)[O-])n3)n2CC)cc1	0.2%	7	-5	17%	1.4	12	-2
CN(Cc1ccccn1)C(=O)CC1C(=O)NCCN1Cc1cccc(Oc2ccccc2)c1 (stereo not given)	-0.6%	-16	-24	-16%	-3.2	-5	-8
O=C(O)/C=C\c1ccccc1Oc1cccc(Cl)c1	-0.5%	-4	14	-3%	0.9	1	4

Source: PubChem (National Center for Advancing Translational Sciences (NCATS))
